# From PubChem BioAssay
# PABP polyA inh = PABP-poly(A) binding inhibition; AID 2014; inhibition, % at 35 µM; PABP-poly(A) RNA binding, fluorescence polarization; P11940; hit rate 1% among 290,000;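 active means 50% or more with normal probe brightness, or confirmed in later tests; inconclusive means above 50% with abnormal brightness, or retests that disagree; inactive means below 50% or failed in later tests; about a fifth of its hits are not listed in these tables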;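 further: calls also rest on retests at 20 µM and on dose response follow-up; controls were probe without protein and protein plus probe with vehicle; some compounds called inactive have numbers as strong as hits; many hits fall short of the cut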
# Target sequence (P11940 whole entry, looked up): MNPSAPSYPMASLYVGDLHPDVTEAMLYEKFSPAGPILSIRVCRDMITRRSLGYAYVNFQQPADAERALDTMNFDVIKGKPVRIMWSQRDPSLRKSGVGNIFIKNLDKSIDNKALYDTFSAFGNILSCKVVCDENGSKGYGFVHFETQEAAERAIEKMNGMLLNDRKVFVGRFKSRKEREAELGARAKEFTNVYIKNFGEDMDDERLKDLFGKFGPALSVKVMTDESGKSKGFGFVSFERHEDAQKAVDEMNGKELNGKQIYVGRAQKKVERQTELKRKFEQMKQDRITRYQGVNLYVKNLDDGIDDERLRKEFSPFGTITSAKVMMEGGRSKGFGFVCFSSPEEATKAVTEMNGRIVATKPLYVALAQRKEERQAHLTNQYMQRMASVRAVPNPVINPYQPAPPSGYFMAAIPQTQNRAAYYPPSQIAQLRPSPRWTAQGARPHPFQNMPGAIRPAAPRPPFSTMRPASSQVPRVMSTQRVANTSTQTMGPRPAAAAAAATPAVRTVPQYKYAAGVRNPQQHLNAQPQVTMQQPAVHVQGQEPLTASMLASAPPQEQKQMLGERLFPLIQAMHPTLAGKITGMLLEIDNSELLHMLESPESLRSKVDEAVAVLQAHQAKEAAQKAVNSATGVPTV
# MT1-MMP act inh = inhibitors of human MT1-MMP activation | hit rate 0.061% among 360,000 | P50281 | HT1080 RFP-PRO-GFP cells, GFP/RFP ratio fluorescence, overnight; percent of plate control window, DMSO zero | GFP/RFP ratio change, % at 20 µM;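 active means GFP/RFP ratio change of at least 30% with cell ATP level not reduced by more than half and red fluorescence within 50% of control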; further: strong numbers were not always called active
#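 Material: RFP-PRO-GFP reporter HT1080 cells. Dosing: single-point 20 µM compound, 1% DMSO. Controls: DMSO and RFP-L50D-GFP cell wells. Timing: cells overnight before dosing, compound overnight, 37 °C, 5% CO2. Measure: GFP/RFP fluorescence ratio.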
# Rce1 inhib = inhibitors of yeast Ras-converting enzyme; AID 2563; Q03530; yeast membranes, quenched prenylated peptide cleavage fluorescence; calls only; hit rate 0.27% among 290,000;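 active means fall in fluorescence gain of 50% or more versus controls, with final raw signal at or below 3038400; inconclusive means same 50% fall but final raw signal above 3038400; inactive means fall in fluorescence gain under 50%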;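 further: plate controls were neutral control wells for no effect and wells lacking membranes for full effect; tested at 10 µM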
# CSC inhib = blocks cancer stem cells | cancer stem cell-like cells viability, luminescence | inhibition, % at 7.5 µM | hit rate 1.1% among 300,000 | AID 2717;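 active means mean at 75% or more and at least half the replicates too; inconclusive means mean and replicates disagree; tested in HMLE shEcad cells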;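 further: 0% = median of negative and 100% = median of positive control wells; the first replicate is given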
# eIF4H FP inh = inhibitors of RNA binding by human eIF4H. Q15056. eIF4H fluorescence polarization binding assay. inhibition, % at 35 µM. hit rate 0.94% among 290,000;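 active means 50% or more with normal probe brightness, or confirmed in later tests; inconclusive means above 50% with abnormal brightness, or retests that disagree; inactive means below 50% or failed in later tests; about a fifth of its hits are not listed in these tables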;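 further: calls also rest on retests at 20 µM and on dose response follow-up; 0% = protein and probe with vehicle and 100% = probe without protein; strong numbers were not always called active; many hits fall short of the cut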
# Env fusion inh = blocks HIV Env-driven cell-cell fusion | HeLa-JRFL Env/CEM21 cell fusion, luciferase | inhibition, % at 12.3 µM | hit rate 1.1% among 360,000;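 active means mean replicate inhibition score of at least 50 and every replicate individually at or above 50; inconclusive means only one of the two criteria met; inactive means mean below 50 and not all replicates reaching 50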;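 further: 0% = plate neutral controls and 100% = maraviroc near 300 nM; one replicate is shown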
# UUG fidelity = modulators of start codon recognition fidelity in yeast | hit rate 0.13% among 350,000 | activity score, % at 18.7 µM | S. cerevisiae UUG-firefly luciferase reporter, luminescence/redox ratio | AID 602363;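 active means replicate mean at a twofold rise or more, about +100% in these data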;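 further: firefly luciferase made from a UUG start codon reports start codon fidelity; reporter light over untreated wells divided by growth signal over untreated wells; some hits fall short of that in this replicate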
# eIF4H FP inh retest = further read-out of eIF4H FP inh, marked with its call; inhibition, %; compound at 20 µM; confirmation average;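 mean of two retest wells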
# PABP polyA inh retest = second read-out of PABP polyA inh, no call of its own (marks repeat the call); inhibition, %; compound at 20 µM; confirmation repeats;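 mean of two retest wells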
# MT1-MMP act inh RFP = further read-out of MT1-MMP act inh, marked with its call; RFP signal change, %; measured here: RFP expression control read;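 0 = vehicle wells; hits needed this value within 50% of zero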
# Active calls of the source: *; i = inactive; u = inconclusive; x = no result given. This is a subset; rates above refer to the full screens.
SMILES,PABP polyA inh,MT1-MMP act inh,MT1-MMP act inh RFP,Rce1 inhib,CSC inhib,eIF4H FP inh,Env fusion inh,UUG fidelity,others
COC(=O)C1=C(c2ccc(C(C)=O)cc2)C[C@@H]2CC[C@H]1N2C(=O)NC1CCCCC1,x,3,5,x,-13,x,-1,-16,
CC1(C)C2([N+](=O)[O-])CN3CC1([N+](=O)[O-])CN(C2)C3c1ccccn1 (stereo not drawn),12,0,2,i,-18,-6,13,-16,
Cc1[nH]c2ccccc2c1C(=O)C(=O)N1CCC2(CC1)OCCO2,-2,-8,-3,i,-6,0,3,x,
C[C@]12C[C@H](O)[C@@H](O)CC1=CCC1C2CC[C@@]2(C)C1CC[C@@H]2O (stereo partly drawn),x,1,3,x,14,x,-3,23,
O=c1[nH]c(=O)n(C2CCCCCC2)c(O)c1C=NCC1CCCO1 (stereo not drawn),68,1,1,i,0,-1,x,-12,eIF4H FP inh retest=-3;PABP polyA inh retest=14
O=C1NC(=O)C(=Cc2cc([N+](=O)[O-])ccc2N2CCCCC2)C(=O)N1,-12,0,0,i,-7,-12,4,8,
CCCCn1c(=O)c(C(=O)NCc2ccncc2)c(O)c2ccccc21,-8,5,2,i,16,2,x,-14,
CN1C2CCC1CC(OC(=O)c1ccc([N+](=O)[O-])cc1)C2 (stereo not drawn),-1,-4,3,i,56,-4,x,x,
COc1ccc(F)cc1C(=O)C1CCCN(Cc2cnc(C)s2)C1 (stereo not drawn),1,-1,-3,i,-9,-11,-56,x,
COc1cccc(C2CC3C(=O)C=CC2N3Cc2ccccc2)c1 (stereo not drawn),-4,-9,8,i,-1,3,-12,-5,
O=C(c1ccc(CS(=O)(=O)c2ccccc2)o1)N1CCC2(CC1)OCCO2,34,11,2,i,x,46,-19,-7,
O=C(c1ccc2c(c1)OCO2)C1CCCN(Cc2ccc(F)c(F)c2)C1 (stereo not drawn),-9,-1,-1,i,17,-12,-8,0,
CN(C)C(=O)Oc1ccc2c(c1)O/C(=C\c1cccc([N+](=O)[O-])c1)C2=O,-4,-1,-2,i,-15,18,0,-14,
CN(C)CCN=Cc1c(O)n(C2CCCCCC2)c(=O)[nH]c1=O,0,0,0,i,-13,-3,x,-9,
COc1cc2c(cc1O)C[C@H]1NCCc3cc4c(c-2c31)OCO4,2.0*,3,9,i,65,64*,2,8,eIF4H FP inh retest=105*;PABP polyA inh retest=80*
CC(C)N1CCC2(CC1)NC(CO)(CO)CO2,7,0,9,i,-6,1,-33,-45,
COC1=CC(=O)OC(/C=C/c2ccccc2)C1 (stereo not drawn),-9,1,0,i,-5,-2,-78,-3,
COC(=O)c1nc(-c2ccc3c(n2)C(=O)C(N)=C(OC)C3=O)c(N)c(-c2ccc(OC)c(OC)c2O)c1C,-1,7,2,i,113*,5,12,-6,
CCC(=NCc1ccco1)c1c(O)n(-c2ccccc2)c(=O)[nH]c1=O,-3,1,-1,i,x,2,x,-1,
Cc1ccccc1-n1c(O)c(C=Nc2ccc3c(c2)OCO3)c(=O)[nH]c1=O,2,-6,3,i,8,-2,15,-15,

# 20 successive records already listed, for reference:
SMILES,PABP polyA inh,MT1-MMP act inh,MT1-MMP act inh RFP,Rce1 inhib,CSC inhib,eIF4H FP inh,Env fusion inh,UUG fidelity,others
COC(=O)C1=C(c2ccc(C(C)=O)cc2)C[C@@H]2CC[C@H]1N2C(=O)NC1CCCCC1,x,3,5,x,-13,x,-1,-16,
CC1(C)C2([N+](=O)[O-])CN3CC1([N+](=O)[O-])CN(C2)C3c1ccccn1 (stereo not drawn),12,0,2,i,-18,-6,13,-16,
Cc1[nH]c2ccccc2c1C(=O)C(=O)N1CCC2(CC1)OCCO2,-2,-8,-3,i,-6,0,3,x,
C[C@]12C[C@H](O)[C@@H](O)CC1=CCC1C2CC[C@@]2(C)C1CC[C@@H]2O (stereo partly drawn),x,1,3,x,14,x,-3,23,
O=c1[nH]c(=O)n(C2CCCCCC2)c(O)c1C=NCC1CCCO1 (stereo not drawn),68,1,1,i,0,-1,x,-12,eIF4H FP inh retest=-3;PABP polyA inh retest=14
O=C1NC(=O)C(=Cc2cc([N+](=O)[O-])ccc2N2CCCCC2)C(=O)N1,-12,0,0,i,-7,-12,4,8,
CCCCn1c(=O)c(C(=O)NCc2ccncc2)c(O)c2ccccc21,-8,5,2,i,16,2,x,-14,
CN1C2CCC1CC(OC(=O)c1ccc([N+](=O)[O-])cc1)C2 (stereo not drawn),-1,-4,3,i,56,-4,x,x,
COc1ccc(F)cc1C(=O)C1CCCN(Cc2cnc(C)s2)C1 (stereo not drawn),1,-1,-3,i,-9,-11,-56,x,
COc1cccc(C2CC3C(=O)C=CC2N3Cc2ccccc2)c1 (stereo not drawn),-4,-9,8,i,-1,3,-12,-5,
O=C(c1ccc(CS(=O)(=O)c2ccccc2)o1)N1CCC2(CC1)OCCO2,34,11,2,i,x,46,-19,-7,
O=C(c1ccc2c(c1)OCO2)C1CCCN(Cc2ccc(F)c(F)c2)C1 (stereo not drawn),-9,-1,-1,i,17,-12,-8,0,
CN(C)C(=O)Oc1ccc2c(c1)O/C(=C\c1cccc([N+](=O)[O-])c1)C2=O,-4,-1,-2,i,-15,18,0,-14,
CN(C)CCN=Cc1c(O)n(C2CCCCCC2)c(=O)[nH]c1=O,0,0,0,i,-13,-3,x,-9,
COc1cc2c(cc1O)C[C@H]1NCCc3cc4c(c-2c31)OCO4,2.0*,3,9,i,65,64*,2,8,eIF4H FP inh retest=105*;PABP polyA inh retest=80*
CC(C)N1CCC2(CC1)NC(CO)(CO)CO2,7,0,9,i,-6,1,-33,-45,
COC1=CC(=O)OC(/C=C/c2ccccc2)C1 (stereo not drawn),-9,1,0,i,-5,-2,-78,-3,
COC(=O)c1nc(-c2ccc3c(n2)C(=O)C(N)=C(OC)C3=O)c(N)c(-c2ccc(OC)c(OC)c2O)c1C,-1,7,2,i,113*,5,12,-6,
CCC(=NCc1ccco1)c1c(O)n(-c2ccccc2)c(=O)[nH]c1=O,-3,1,-1,i,x,2,x,-1,
Cc1ccccc1-n1c(O)c(C=Nc2ccc3c(c2)OCO3)c(=O)[nH]c1=O,2,-6,3,i,8,-2,15,-15,

# (next part)
SMILES,PABP polyA inh,MT1-MMP act inh,MT1-MMP act inh RFP,Rce1 inhib,CSC inhib,eIF4H FP inh,Env fusion inh,UUG fidelity,others
C/C(=N\N1CCCCCC1)c1c(O)n(-c2ccccc2C)c(=O)[nH]c1=O,-6,3,-5,i,-5,2,-2,2,
C=CCn1c(O)c(/C(C)=N/N2CCN(C)CC2)c(=O)[nH]c1=O,0,4,4,i,-14,-9,-1,x,
C[C@H]1C(=O)O[C@@H]2CCN3CC=C(COC(=O)[C@](C)(O)[C@]1(C)O)[C@H]23,x,-3,2,x,-3,x,12,-6,
CC(C)N(C(=O)CCl)c1ccccc1,x,0,0,x,x,x,u,-10,
COC(=O)C1=C(c2ccc(Cl)c(C(F)(F)F)c2)C[C@@H]2CC[C@H]1N2C(=O)NCC1CC1,x,-6,-7,x,-11,x,46,-3,
COc1ccc(P2(=O)Nc3ccccc3N2)cc1,5,-8,0,i,2,33,i,10,
CCN1CCN(c2ccc([N+](=O)[O-])cc2C#N)CC1,0,-2,2,i,-16,5,2,x,
CCCCn1nnnc1C(c1cccc(OC)c1OC)N1CCC2(CC1)C(=O)NCN2c1ccccc1 (stereo not drawn),x,7,-3,x,x,x,-48,23,
O=P(/C(=N/O)N1CCOCC1)(N1CCOCC1)N1CCOCC1,1,3,2,i,0,-7,x,11,
S=C=Nc1ccccn1,0,-1,0,i,0,0,-4,-16,
OCC1CO1 (stereo not drawn),x,3,7,x,-10,x,x,-18,
O=C(N/N=C/c1c(O)n(CCc2ccccc2)c(=O)[nH]c1=O)c1ccncc1,2,-12,4,i,-8,u,-15,-36,
CC(=O)CCC(C)=O,x,0,-3,x,-5,x,x,-10,
CCC(=NCc1ccco1)c1c(O)n(-c2ccc(C)cc2)c(=O)[nH]c1=O,9,0,1,i,-5,4,-14,20,
Cc1cccc(C)c1NC1=NCCCS1,7,-1,2,i,3,7,x,-14,
COc1cc(OC)c([C@H]2C=C(C)[C@H]3C[C@@H]2C3(C)C)c(OC)c1,x,-1,-7,i,38,x,7,-17,
Clc1ccc(C(Cl)(Cl)Cl)c(Cl)c1,x,3,6,x,-8,x,x,14,
CC(C)COc1ccc(Cc2c(O)[nH]c(=S)[nH]c2=O)cc1,3,-2,-1,i,-9,0,13,-15,
COc1cccc(Oc2coc3cc(OC(=O)N(C)C)ccc3c2=O)c1,-2,12,-6,i,-4,-3,2,-9,
O=C(O)C1C2CCC(O2)C1C(=O)Nc1ccc(F)c(F)c1 (stereo not drawn),6,4,8,i,-10,6,9,-15,
COc1ccc(-n2c(O)c(/C(C)=N/Nc3ccccc3)c(=O)[nH]c2=O)cc1,2,0,0,i,-6,-5,8,-5,
Cc1c(C)c2ccc(OCC(=O)N3CCC(C(=O)O)(c4ccccc4)CC3)c(C)c2oc1=O,7,1,4,i,-5,-8,x,8,
CCC(=Nc1ccccc1N)c1c(O)[nH]c(=O)[nH]c1=O,13,1,3,i,-5,-1,-3,-7,
CCc1ccc(-n2c(O)c(/C=N/NC(=O)c3ccncc3)c(=O)[nH]c2=O)cc1,23,-5,7,i,-18,9,-17,x,
COc1cccc(CN2CCCC(C(=O)c3ccccc3SC)C2)c1O (stereo not drawn),-4,-4,1,i,7,6,9,-6,
CCCC(C)C1C(C#N)=C(N)Oc2c1c(=O)oc1ccccc21 (stereo not drawn),0,1,-5,i,-5,-1,x,0,
CCCNC(=O)N1[C@H]2CC[C@@H]1C(C(=O)OC)=C(c1cccc(Cl)c1)C2,x,-1,-1,x,-13,x,-12,-4,
CCN(CC)C(=O)c1ccc(NC(=O)COC(=O)c2ccc(Cl)s2)cc1,x,-5,2,x,-11,x,x,-1,
O=C1C=C(N2CC2)c2ccccc2C1=O,x,19,4,x,x,x,u,-44,
CN1CCCC1c1ccc(=O)[nH]c1 (stereo not drawn),x,-1,3,x,x,x,-9,-8,
CN1CCN(c2cc(N3CCNCC3)ccc2[N+](=O)[O-])CC1,-10,2,0,i,10,-5,13,2,
CCOP(=O)(OCC)C(O)c1ccc(OC)cc1OC (stereo not drawn),-5,1,5,i,-18,10,-39,1,
CC(=NCC1CCCO1)c1c(O)n(-c2ccc(Cl)cc2)c(=O)[nH]c1=O (stereo not drawn),-10,0,1,i,-22,-10,-57,-9,
O=c1cc(CN2CC=C(c3ccccc3)CC2)c2c(ccc3ccccc32)o1,-2,-3,4,i,8,5,-9,x,
CN(C)C1(c2nnnn2CCOC(=O)Nc2ccc(Cl)cc2)CCCCC1,-4,-2,-9,i,2,2,x,-25,
Cc1oc(-c2ccccc2)nc1CN1C(=O)C(C)N=C(c2ccccc2F)c2cc(Cl)ccc21 (stereo not drawn),0,-11,-11,i,29,0,-13,3,
